Sa ugtP lethal: growth inhibition of S. aureus ugtP deletion strain; S. aureus RN4220 ugtP deletion, OD600 growth, 16 h; some inactives read as strong as hits; growth inhibition, % (concentration not given with the values); actives 0.54% (n = 330,000); AID 1259309;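 active = z-score under -3 and OD600 up to 0.15 on both plates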;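 also: plate controls were untreated wells for no effect and antibiotic for full effect; wells of about 80 µL received 100 nL stock; the first replicate is given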
BJeLR lethal: kills HRASV12-expressing BJeLR cells | BJeLR (HRASV12) viability, CellTiter-Glo ATP luminescence, 48 h; reference of the scale not given here | inhibition, % (concentration not given with the values) | actives 0.17% (n = 300,000) | AID 1554;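 active = replicate mean above 50%; inconclusive = above 50% but judged a plate artefact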;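 also: 50 nL library stock added to about 25 µL; numbers are from one replicate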
Sa RN4220 lethal: S. aureus RN4220 growth inhibition. OD600, 16 h. actives 0.33% (n = 330,000). inhibition, % (concentration not given with the values);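 active = z-score of -3 or lower and OD600 up to 0.18 on both plates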;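 also: plate controls were untreated cells for no effect and reference antibiotic for full effect; stock transfer was 100 nL into about 80 µL; one replicate is shown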
PrP UTR inh: inhibition of PrP 5' UTR reporter expression; cell-based PrP 5' UTR mRNA reporter, plate reader; inhibition, % (concentration not given with the values); actives 0.35% (n = 340,000); AID 488862;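 active = every replicate at 50% or more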;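 also: 0 = median of the neutral control wells; tested in H4 reporter cells; numbers are from one replicate; inactives centre near -14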
Mtb hypoxia inh: Mtb hypoxia fluorescent reporter inhibition; M. tuberculosis hypoxia-regulated fluorescent reporter, fluorescence; fluorescence inhibition, % (no concentration beside the values); actives 0.1% (n = 300,000);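 active = 35 to 45% if threefold the growth effect, above 45% if 1.5-fold the growth effect; inactive = the rest, general growth blockers included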;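 also: wells of about 50 µL received 100 nL stock; 0% = vehicle wells and 100% = reference inhibitor wells; whole bacteria with a GFP reporter of the hypoxia response; strong numbers were not always called active; many hits fall short of the cut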
Autofluor counter: compound fluorescence in toxin protease inhibitor counterscreen; compound autofluorescence counterscreen, microsphere flow cytometry; stronger effect = higher value; fluorescence intensity (concentration not given with the values); actives 3.1% (n = 360,000);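 active = at least 3 SD above the mean of all compounds, about 16000 in these data; inconclusive = too few beads counted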;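 also: 100 nL of 1 mM stock went into each well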
Mtb hypoxia inh growth: also measured in Mtb hypoxia inh; calls as there; growth inhibition, %; measured here: M. tuberculosis growth (absorbance);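 0% = vehicle and 100% = reference antibiotic; read after six days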
Active calls of the source: *; ? = inconclusive; . = not tested or not shown; & = joins results of further samples.

SMILES	Sa ugtP lethal	BJeLR lethal	Sa RN4220 lethal	PrP UTR inh	Mtb hypoxia inh	Mtb hypoxia inh growth	Autofluor counter
O=C(c1ccc2c(c1)OCO2)C1CCCN(C(=O)C2CCOCC2)C1 (stereo unspecified)	3	23	-0.8	-30	-16	-10	3137
CCOc1ccc(N(CC(=O)NCc2ccccc2OC)S(C)(=O)=O)cc1	-4	-4	6.2	-34	3	14	8021
CC(Oc1ccc(-c2nccc(-c3ccccn3)n2)cc1)C(=O)NN (stereo unspecified)	9	4	3.0	-19	.	.	2720
COc1ccccc1C(=O)C1CCCN(C(=O)CCC(=O)c2ccccc2)C1 (stereo unspecified)	4	-4	6.7	7	-3	1	2704
CN(C)/C=C/C(=O)c1ccc(F)cc1	2	-5	1.8	-21	-4	7	6113
Cc1nc(C)c(-c2csc(Nc3ncccc3C)n2)s1	-21	2	5.3	-62	-10	-5	3303
CCc1ccc(-c2nc(SCC(=O)NC3CCS(=O)(=O)C3)n[nH]2)cc1 (stereo unspecified)	3	4	2.3	-22	11	1	?
CN(C1CCS(=O)(=O)C1)S(=O)(=O)c1ccc(C2CCCCC2)cc1 (stereo unspecified)	-1	5	2.3	0	6	9	14123
CSCCC(NC(=O)c1ccc(Cl)cc1)C(=O)OCC(=O)Nc1cc(Cl)ccc1C#N (stereo unspecified)	4	9	-2.5	-9	5	5	2379
COc1ccc(CN2CCC(n3nccc3NC(=O)CCc3ccccc3)CC2)c(C)c1C	-5	-1	1.3	0	-11	-13	4393
Cc1csc(NC(=O)c2ccoc2C)n1	26	4	3.0	-33	11	6	8673
CCCc1n[nH]c2c1/C(=N/O)CC(c1ccccc1)C2 (stereo unspecified)	.	7	.	-5	.	.	2976
CC(C)CC(=O)Nc1ccc(C(=O)COC(=O)CN2C(=O)NC3(CCCCC3C)C2=O)cc1 (stereo unspecified)	1	.	2.4	-16	-1	-2	5678
CC(=O)N/C(=N\c1nc(C)cc(C)n1)Nc1ccc(Cl)cc1Cl	.	3	.	-1	.	.	3672
CC1CCN(C(C(=O)O)c2ccccc2)CC1 (stereo unspecified)	5	-2	1.8	-35	-13	0	3996
O=C(O)c1ccc(NC(=O)c2ccccc2NC(=O)c2cccc(Br)c2)cc1	9	-2	4.6	-17	3	3	3296
CC(=O)Nc1ccc(NC(=O)CSc2nnc(-c3cc4ccccc4o3)n2C)cc1	1	-2	2.5	-10	-1	-2	3632
CC(=O)c1ccc(OCc2cc(C(=O)N3CCC[C@H]3CO)no2)cc1	5	1	2.1	-5	5	18	5964
COc1ccc(N2CCN(C(=O)c3ccc4c(c3)[nH]c(=S)n3c5ccccc5nc43)CC2)cc1	2	-20	16	.	9	5	.
C=CCOC(=O)C1=CC(c2csc3ccccc23)CC(OCCCCO)O1 (stereo unspecified)	7&-8	.	12&34	.	19&10	8&-1	.
COc1ccc(C)cc1S(=O)(=O)NCCN1CCOCC1	12	7	2.5	2	7	13	3900
CC(=O)c1cnc2nc(SCc3ccccc3C)nn2c1C	17	4	2.4	-14	5	13	4121
N/C(=N\OC(=O)c1ccco1)c1ccccn1	-1	-7	1.8	-45	6	5	1987
O=C(NN=Cc1cccc([N+](=O)[O-])c1)C1COc2ccccc2O1 (stereo unspecified)	1	.	-1.3	.	3	0	.
Cc1cccc(Oc2ccc(NC(=O)C3CC=CCC3C(=O)O)cc2)c1 (stereo unspecified)	4	-1	-0.1	-25	4	10	4299
COc1cccc(-c2nn(-c3ccccc3)cc2CN(C)Cc2c(C)nc3ccccn23)c1	.	0	.	-38	.	.	2723
O=C(NCc1c(Cl)cccc1Oc1ccccc1)c1ccccc1	9	-3	9.6	-3	9	4	.
Cc1ccc(C)c(NC(=O)CN(C)S(=O)(=O)c2ccccc2)c1	-5	-3	0.1	-14	0	3	11478
CCn1cc(Cl)c(C(=O)NNC(=O)CCn2cc([N+](=O)[O-])cn2)n1	0	1	6.5	-2	3	-1	2462
Cc1ccc(NC(=O)CCSc2nnc(-c3ccco3)o2)cc1	0	-20	2.3	-19	3	11	4498
CCC(C)(C)C1CCC2(CC1)NC(=O)N(CC(=O)N(C)Cc1ccc(OC(F)F)cc1)C2=O (stereo unspecified)	-1	2	0.6	-14	1	0	5651
O=C(COC(=O)c1ncc(Cl)c(Cl)c1Cl)NCCc1ccccc1	3	5	4.1	-23	5	0	?
O=C(NCC1CCCO1)C(=O)N/N=C/c1cc(Cl)ccc1O (stereo unspecified)	.	-2	.	-21	.	.	4252
Cc1ccc(S(=O)(=O)Nc2ccc(S(=O)(=O)Nc3nccs3)cc2)c([N+](=O)[O-])c1	83	1	6.0	-18	.	.	5692
CCCNC(=O)COc1ccc(S(=O)(=O)Nc2ccc(C)cc2)cc1	13	3	5.5	3	5	7	22233*
CCOc1ccc(NC(=O)CSc2nc(=O)n(Cc3cccnc3)c3c2CCC3)cc1	25	2	3.4	-25	5	0	?
CC(=O)c1c(C)[nH]c(C(=O)CN2CCN(S(=O)(=O)c3ccccc3)CC2)c1C	-2	.	2.3	-25	11	38	7951
c1csc(CN2CCOCC2)c1	0	0	1.9	-13	-10	-10	9556
CC(=O)c1sc(NC(=O)COc2ccccc2)nc1C	6	-7	5.8	-50	18	12	4318
Cc1cc(C)nc(/N=C(\NC(=O)C(C)(C)C)Nc2ccc(F)cc2)n1	.	-15	.	-14	.	.	3867
O=[N+]([O-])c1ccccc1S(=O)(=O)Nc1cccc(-c2ccc3nncn3n2)c1	5	-4	2.7	-60	8	14	5964
COc1cc(NC(=O)C2=C(N3CCOCC3)/C(=C/c3ccc(Cl)cc3)CC2)cc(OC)c1OC	5	4	0.8	-8	4	2	2418
O=C(CNCc1ccc(Cl)cc1)Nc1ccc2c(c1)OCCO2	11	5	6.9	-16	18	16	4067
CCOC(=O)N1CCC(NC(=O)c2cc(C(=O)NC3CCCC3)ccc2CO)CC1	7	6	-5.0	-19	4	9	6007
CC(C)c1ccc(N(CC(=O)NC2CCCC2)C(=O)CCC(=O)Nc2ccccn2)cc1	-1	-13	5.3	-48	10	3	5381
CCOc1ccc(N2CC(C(=O)Nc3ccccc3N3CCOCC3)CC2=O)cc1 (stereo unspecified)	11	3	2.5	-9	.	.	3464
CCSc1cc(Cl)nc(N)n1	-3	-10	3.2	-2	11	-5	4293
Fc1ccc2c(Cl)c(-c3nnc(-c4cccs4)o3)sc2c1	-7	10	3.4	-46	3	6	10683
CCOc1ccc(N(CC(=O)Nc2ccc(OC)cc2OC)S(=O)(=O)c2c(C)[nH]c(=O)[nH]c2=O)cc1	-4	3	-0.1	-8	-5	-1	4134
CC(C)C(c1nnnn1Cc1ccc(F)cc1)N1CCN(c2ccc(O)cc2)CC1 (stereo unspecified)	-2	1	4.2	-23	-5	6	4511

Next compounds follow:
SMILES	Sa ugtP lethal	BJeLR lethal	Sa RN4220 lethal	PrP UTR inh	Mtb hypoxia inh	Mtb hypoxia inh growth	Autofluor counter
CCC1(CC)NC(=O)N(CC(=O)OCC(=O)Nc2ccc(OC(F)(F)F)cc2)C1=O	-1	.	1.4	-6	21	31	6216
CN1CCN(C(=O)/C(=C/c2ccc(F)cc2)c2ccsc2)CC1	7	1	5.4	-37	16	6	4228
COc1cccc(C(C(=O)NC(C)(C)C)N(Cc2ccc(C)cc2)C(=O)CCC(=O)Nc2cc(C)on2)c1OC (stereo unspecified)	-2	-10	1.8	-19	12	-3	3399
COc1cccc(CN2CCNC(=O)C2CC(=O)N(C)CCC2CCOCC2)c1 (stereo unspecified)	4	9	4.5	-27	6	1	5951
COc1cc(NC(=O)c2nn(C)c3c2CS(=O)(=O)c2ccccc2-3)cc(OC)c1	4	-2	1.3	5	1	-1	5881
Cc1cc(=O)oc2c3c(cc(OCC(=O)N[C@@H](CC(C)C)C(=O)O)c12)OC(C)(C)CC3	11	-8	0.6	-18	10	13	3541
Cc1oc2ncnc(N)c2c1C	-2	0	3.4	-18	2	0	2432
COc1ccc(CNC(=O)CCCNC(=O)c2ccc(Cl)cc2)cc1OC	2	-8	3.0	-11	9	11	3285
Cc1c(C(=O)N2CCN(S(=O)(=O)c3ccccc3)CC2)oc2ccccc12	13	.	-2.2	-10	3	1	7117
COCCNC(=O)C(c1ccccc1)N(C(=O)Cn1nnc2ccccc21)c1cccnc1 (stereo unspecified)	2	6	2.5	0	.	.	4848
COc1ccc(S(=O)(=O)N2CCC(C(=O)NN3CCCCC3)CC2)cc1OC	1	.	4.4	3	3	1	4001
COc1ccc(C2(CCN)CC(C)N(C)CC2C)cc1 (stereo unspecified)	-8	-4	0.0	-5	.	.	3888
O=C(c1ccco1)N1CCN(Cc2nnc(-c3cccc(Br)c3)o2)CC1	8	-6	1.2	-10	1	0	2990
COc1cc(-c2cc(-c3ccccc3)nc(SCC(=O)O)c2C#N)cc(OC)c1OC	7	2	10	-17	15	8	3802
O=C(C1CC(=O)N(c2ccc3c(c2)OCCO3)C1)N1CCCC(C(F)(F)F)C1 (stereo unspecified)	-2	1	-3.8	-7	-2	2	6410
Cc1cc(C(=O)NCCCN2CCN(C3CCCCC3)CC2)n(-c2ccccc2)n1	8	4	-0.2	-21	6	2	4262
CN1C(=O)c2cccc3c(S(=O)(=O)NCc4ccco4)ccc1c23	-5	3	-11	-5	13	14	2982
COc1ccc(/C=N/n2cnc3c([nH]c4ccc(C)cc43)c2=O)cc1CN1CCCC1	.	7	.	-9	.	.	5983
Cc1ccccc1CC(=O)Nc1ccc2c(C)cc(=O)oc2c1	11	21	4.6	-19	14	15	3640
CC(C)C(C)NC(=O)COc1ccc(Sc2ccc(OCC(=O)NC(C)C(C)C)cc2)cc1 (stereo unspecified)	-6	-1	-1.5	-12	1	0	10335

Whole records as entered above:
`CN1C(=O)c2cccc3c(S(=O)(=O)NCc4ccco4)ccc1c23` is listed with Sa ugtP lethal: -5; BJeLR lethal: 3; Sa RN4220 lethal: -11; PrP UTR inh: -5; Mtb hypoxia inh: 13; Mtb hypoxia inh growth: 14; Autofluor counter: 2982
`COc1ccc(S(=O)(=O)N2CCC(C(=O)NN3CCCCC3)CC2)cc1OC` is listed with Sa ugtP lethal: 1; BJeLR lethal: .; Sa RN4220 lethal: 4.4; PrP UTR inh: 3; Mtb hypoxia inh: 3; Mtb hypoxia inh growth: 1; Autofluor counter: 4001
`COc1ccc(C2(CCN)CC(C)N(C)CC2C)cc1` (stereo unspecified) is listed with Sa ugtP lethal: -8; BJeLR lethal: -4; Sa RN4220 lethal: 0.0; PrP UTR inh: -5; Mtb hypoxia inh: .; Mtb hypoxia inh growth: .; Autofluor counter: 3888

Random excerpt: 3 records from the list.
SMILES	Sa ugtP lethal	BJeLR lethal	Sa RN4220 lethal	PrP UTR inh	Mtb hypoxia inh	Mtb hypoxia inh growth	Autofluor counter
O=C(c1ccco1)N1CCN(Cc2nnc(-c3cccc(Br)c3)o2)CC1	8	-6	1.2	-10	1	0	2990
CN1C(=O)c2cccc3c(S(=O)(=O)NCc4ccco4)ccc1c23	-5	3	-11	-5	13	14	2982
O=C(C1CC(=O)N(c2ccc3c(c2)OCCO3)C1)N1CCCC(C(F)(F)F)C1 (stereo unspecified)	-2	1	-3.8	-7	-2	2	6410

Carrying on.
SMILES	Sa ugtP lethal	BJeLR lethal	Sa RN4220 lethal	PrP UTR inh	Mtb hypoxia inh	Mtb hypoxia inh growth	Autofluor counter
O=C(Cc1ccc(Cl)cc1)Nc1ncc([N+](=O)[O-])s1	15	41	30	-61	5	2	4271
CC(C)(C)c1cc(CCC(=O)Nc2ccncc2)cc(C(C)(C)C)c1O	-1	-5	4.4	-21	0	0	5684
COc1ccccc1OCC(=O)Nc1ccc(Cl)cc1	-5	-1	2.7	-7	1	7	23170*
Cc1onc(-c2c(Cl)cccc2Cl)c1C(=O)NCc1ccco1	-1	-18	3.1	-5	6	8	4374
Cc1cc(O)cc(C)c1Cl	5	-1	10	-10	-2	-1	5191
CC1CN(C(C)CO)C(=O)c2cccc(NC(=O)CCC(F)(F)F)c2OC1CN(C)CC1CCCCC1 (stereo unspecified)	10	.	9.1	.	1	-2	.
Cc1ccc(Cl)cc1NC(=O)[C@@H]1CCC(=O)N1C1OC(=O)c2ccccc21 (stereo partly specified)	-8	-5	1.1	-6	.	.	5706
CCCc1nnc(NC(=O)CCC(=O)NC2CCCc3ccccc32)s1 (stereo unspecified)	13	7	2.8	-15	17	10	2464
Nc1ccnn1Cc1cccnc1	-2	4	-3.4	-16	.	.	4418
O=C(NC(=S)NC1CCCCC1)c1ccccc1	.	3	.	-43	.	.	6269
CCOc1cccc2cc(C(=O)NCc3ccc(Cl)cc3)c(=N)oc12	2	1	6.4	-15	11	15	5455
O=C(O)CCCCCn1c(O)c(C=C2N=c3ccccc3=N2)sc1=S	7	6	6.9	-9	12	6	2443

Assay outcomes deposited in PubChem BioAssay by several laboratories.
